Vaccinia mCherry: inhibitors of vaccinia virus infection (mCherry reporter signal); AID 720579; Potency, µM (doses to about 36.5 µM), for inactives: at the top dose activity change, negative = inhibition, most hits filed as inhibitors; actives 0.63% (n = 310,000); Vaccinia virus mCherry reporter infection, fluorescence; about a quarter of the inactives have no number; active = well fitted inhibition curve with a large enough effect; inconclusive = small, poorly fitted or top-dose-only effect; inactive = no such curve, though single readings can be large or run the other way; tested in A549 cells; note: nearly all actives have a fitted effect of over 35% in size; inactives centre near -10
VACV Venus inh: inhibitors of vaccinia virus (Venus reporter); Potency, µM (top dose mostly 36.5 µM), inactives show top-dose activity change, negative = inhibition, hits mostly inhibitors; actives 0.46% (n = 330,000); Vaccinia virus Venus reporter expression, fluorescence; active means well fitted inhibition curve with a large enough effect; inconclusive means small, poorly fitted or top-dose-only effect; inactive means no such curve, though single readings can be large or run the other way; tested in A549 cells; note: nearly all actives have a fitted effect of over 30% in size; inactives centre near -10
Active calls of the source: *; i = inactive; u = inconclusive; x = not tested or not shown; & = joins results of further samples. % is set by controls: 0 for no effect and ±100 for the full control effect; potency is the fitted concentration of half-maximal effect.

compound,VACV Venus inh,Vaccinia mCherry
COc1cc(CC(NC(C)=O)C(=O)NC2CCN(C(=O)c3cc(OC)c(OC)c(OC)c3)CC2)cc(OC)c1 (centres undefined),-6%,i
O=C(NCc1cccs1)c1nn(-c2ccccc2Cl)nc1CO,-5%,-13%
CC1CCCN(Cc2cccc(Oc3ccccc3)c2)C1 (centres undefined),-19%,i
CC(C)Cn1c(=O)c2sccc2n2c(CCCC(=O)NC3CCCCC3)nnc12,-10%,-7%
C[C@@H]1CN([C@@H](C)CO)C(=O)c2c(c3ccccc3n2C)-c2ccccc2CO[C@H]1CN(C)C(=O)[C@H](Cc1ccccc1)N(C)C,-29%,-9%
O=C(COC(=O)CCSc1ccc(Cl)cc1)NCCc1ccccc1,-1%,-8%
CCC1=C(c2ccc(C)cc2)S(=O)(=O)N=C1N1CCC(C(=O)Nc2ccccc2C(=O)OC)CC1,-10%,-23%
CCn1cc(CNC(=O)c2cc(-c3ccccc3OC)nc3ccccc23)c(C)n1,-16%,-18%
Cc1ccc(S(=O)(=O)N(C)CC(O)Cn2c3ccccc3c3ccccc32)cc1 (centres undefined),-29%,x
Cc1ccccc1C(=O)Nc1cccc(NC(=S)NC(=O)c2cccs2)c1,-29%,x
COc1ccc(-n2nc(C(=O)NCC(=O)N3CCCC3)c3ccccc3c2=O)c(OC)c1,-21%,-29%
CCOc1ccc(OCCC(=O)OCC(=O)Nc2cc(S(=O)(=O)N3CCOCC3)ccc2C)cc1,-6%,-5%
Oc1ccccc1N=N/C(=N/Nc1ccccc1O)c1ccccc1,4%,u
COc1ccc(CNC(=O)c2ccc3c(Cl)c4c(nc3c2)CCCC4)c(OC)c1,-12%,-22%
CN1CCN(C(=O)c2cc(=O)c3cc(Cl)ccc3o2)CC1,-5%,i
COc1ccc(S(=O)(=O)N2CC(C)OC(C)C2)cc1C(=O)N1CCCCC1 (centres undefined),-5%,i
CCCN(CCC)CCCNC(=O)C1CCN(S(=O)(=O)CC)CC1,-9%,-5%
Oc1c(Br)cc(C2N=C(c3ccccc3)NO2)cc1Br (centres undefined),-16%,-20%
Cc1ccc2c(c1)-c1c(ssc1=S)C(C)(C)N2C(=O)c1ccco1,-29%,-14%
O=C(O)C(Cc1ccccc1[N+](=O)[O-])N1C(=O)c2ccccc2C1=O (centres undefined),-1%,-17%
CCc1ccc(N(C(=O)CCC(=O)Nc2cc(C)on2)C(C(=O)NC(C)(C)C)c2ccc(OC)cc2)cc1 (centres undefined),u,-27%
C=Cn1ccnc1P(=S)(c1ccccc1)c1nccn1C=C,-1%,-9%
CCOC(=O)/C(N=Nc1sc(C(=O)OC)c(C)c1C(=O)OCC)=C(\O)CCl,-16%,-29%
COc1ccc(NC(=O)c2ccco2)cc1NC(=O)c1c(OC)cccc1OC,-9%&-8%,-2%
Cc1ccc(CN2CCNC(=O)C2CC(=O)NCc2cc(C)n(C)n2)cc1 (centres undefined),-2%,i
CCOc1ccc(-c2cccc(NS(=O)(=O)c3ccc([N+](=O)[O-])cc3)c2)nn1,-21%,u
CS(=O)(=O)N(CC(=O)NCc1cccnc1)C1CCCCC1,0%,11%
CCN(CC)C(=O)c1sc2c(c1C)c(=O)n(-c1ccc(C)c(C)c1)c(=O)n2CC(=O)Nc1ccc(F)cc1,-11%,-3%
C(=NNC1=NCCN1)c1ccnc2ccccc12,-5%,i
NCCCCCNC(=O)c1[nH]cnc1C(=O)N[C@@H](Cc1ccccc1)C(=O)OCc1ccccc1,-2%,-11%
COc1ccc(OCC(=O)N/N=C2/C=C(C)CC2)cc1,-4%,i
O=C1c2cccnc2C(=O)N1c1ccccc1-c1ccccc1,-5%,-12%
Cc1cccc(/C=N/NC(=O)CC(=O)NCCc2ccccc2)c1,24%,-4%
Cn1c(SCc2ccccc2)nccc1=O,-8%,i
COc1cc(/C=N\NC(=O)c2ccc(-c3ccccc3)cc2)cc(Br)c1O,-21%,u
CC(=O)c1ccc(S(=O)(=O)NCCC(=O)OCC(=O)N(Cc2ccccc2)C(C)(C)C)cc1,-10%,-8%
Cc1ccc(NC(=O)CSc2nc(=O)n(CCN3CCOCC3)c3c2CCCC3)cc1,-3%,i
COC(=O)c1cc(OC)c(OC)cc1NC(=O)CC1CCCCC1,-5%,-5%
Cc1cccc(NS(=O)(=O)c2cccs2)c1,-8%,-14%
CCC(C)NC(=O)CCCN1C(=O)CCn2nc(-c3cccn3C)cc21 (centres undefined),9%,4%
N#Cc1c(-c2cccnc2)c2c([nH]c1=S)CCCC2,-7%,x
C=CCN1C(=O)NC(=O)C(CCc2ccncc2)(CCc2ccncc2)C1=O,-9%,i
Cc1cccc(NC(=S)Nc2cccc3ccccc23)c1,-1%,u
COc1ccc(NC(=O)Cc2csc(NC(=O)Nc3ccccc3OC)n2)cc1,-21%,-9%
CCOc1c2ccc(C(=O)N[C@H](C)C3CCCCC3)cc2nn1CC,-19%,-21%
Nc1c(Cl)cc(Cl)cc1C(=O)OCC(=O)N1CCOCC1,-11%,i
CCOC(=O)[C@]12CCC=C1N(Cc1ccc3c(c1)OCO3)C(=O)[C@H](CC(=O)N1CCSCC1)C2,-4%,1%
CSc1nccc(-c2nn(-c3ccc(C)cc3)ccc2=O)n1,u,u

A few values from above.
N#Cc1c(-c2cccnc2)c2c([nH]c1=S)CCCC2 in VACV Venus inh: -7%
Nc1c(Cl)cc(Cl)cc1C(=O)OCC(=O)N1CCOCC1 in VACV Venus inh: -11%

Sorted by molar mass (smallest number first): some entries from above
compound,VACV Venus inh,Vaccinia mCherry
N#Cc1c(-c2cccnc2)c2c([nH]c1=S)CCCC2,-7%,x
Cc1cccc(NC(=S)Nc2cccc3ccccc23)c1,-1%,u
Cc1ccc(NC(=O)CSc2nc(=O)n(CCN3CCOCC3)c3c2CCCC3)cc1,-3%,i

The results go on:
compound,VACV Venus inh,Vaccinia mCherry
CC[C@]1(C(=O)OC)[C@H]2C(=O)N(Cc3ccccc3)C(=O)[C@H]2[C@H]2CN=C(SCC3CC3)N21,-25%,-10%
CC(=O)N1CCN(C(=O)c2cc(-c3ccc(C)o3)nc3ccccc23)CC1,-2%,-4%
Cc1ccc(NS(=O)(=O)c2ccccc2[N+](=O)[O-])cc1S(=O)(=O)N1CCCCC1,-1%,-10%
COC(=O)c1ccc(N2C(=O)CC(Sc3n[nH]c(C)n3)C2=O)cc1 (centres undefined),-22%,-4%
NC(=O)CC1C(=O)N(c2ccc(Cl)cc2)C(=S)N1NC(=O)c1cccc(F)c1 (centres undefined),-22%,-3%
CC1CC(Nc2ccccc2N)=CC(=O)O1 (centres undefined),-4%,x
CCOC(=O)c1cccc(NC(=O)c2ccc(NC(=O)C3CCCO3)cc2)c1 (centres undefined),-12%,-19%
CCN(CC)CCn1c2c(c(SCC(=O)Nc3ccc(F)c(F)c3)nc1=O)CCC2,-16%,-4%
CC1=C(c2ccc(C)c(C)c2)S(=O)(=O)N=C1N1CCC(C(=O)NCCc2ccco2)CC1,-13%,-26%
O=C(Nc1ccccc1)c1cn(-c2ccccc2)nc1-c1ccccc1,-8%,-3%
Cc1ccc(-c2c(CN3CCN(c4cccc(C)c4)C(C)C3)csc2C)cc1 (centres undefined),-5%,-8%
O=C(C[N+]12CN3CN(CN(C3)C1)C2)c1ccc(-c2ccccc2)cc1,-10%,i
Cc1ccc(OCCC(=O)OCc2csc(CC(=O)Nc3ccccc3C)n2)cc1,-14%,-19%
Cc1cc(C)cc(N(CCC(=O)Nc2nnc(C3CC3)s2)S(=O)(=O)c2ccc(Cl)cc2)c1,u,u
Nc1ccccc1NC1=CC(=O)CC(c2ccco2)C1 (centres undefined),-28%,x
CCCCn1c(N)c(N(CCC(C)C)C(=O)c2c(CC)noc2C)c(=O)[nH]c1=O,0%,i
CCOC(=O)C1C(c2cc(OC)c(OC)c(OC)c2)NC(=S)NC1(O)C(F)(F)F (centres undefined),-2%,i
CC(C)(C)C(=O)O/N=C1\CCS(=O)(=O)c2sccc21,-3%,-3%
Cc1[nH]nc(-c2ccc(OCc3cnn(-c4ccccc4)c3)cc2O)c1Oc1ccc(F)cc1,-20%,x
COc1ccccc1N1CCN(C2CCCN(C(=O)CCc3cnn(C)c3)C2)CC1 (centres undefined),-13%,-12%
CC(O)CNCCOc1ccccc1-c1ccccc1 (centres undefined),-12%,-20%
Cc1noc(C)c1NC(=O)N(C)C[C@H]1Oc2c(NC(=O)Nc3ccc4c(c3)OCO4)cccc2C(=O)N([C@H](C)CO)C[C@@H]1C,-12%,-14%
O=C1c2ccccc2C(=O)N1CCCCN(C(=O)c1ccc(Cl)s1)c1ccc(Cl)cc1,-5%,-5%
CCCn1c(N)c(N(CCOC)C(=O)COC(=O)CSc2cc(C)c3ccccc3n2)c(=O)[nH]c1=O,-7%,i
COc1ccc(Nc2nc(NCc3ccco3)nc(N3CCOCC3)n2)cc1,-23%,i
COc1ccccc1N1CCN(CC(=O)N2CCCC2)CC1,-20%,-9%
O=S1(=O)CCN(Cc2ccccc2)CC1,4%,-17%
Cc1ccc(C2=NN(CCC#N)C(=O)CO2)cc1,-14%,-5%
CCOc1ccccc1NC(=O)Cn1c(=O)n(CCC(C)C)c(=O)c2cccnc21,-15%,-17%
CCCCn1cc(S(=O)(=O)c2ccc(OC)cc2)c(=O)c2cc(CC)ccc21,-8%,-6%
OC[C@@H]1CN(Cc2ccc(-c3ccccc3)cc2)C[C@H](n2cnc3c(NC4CCC4)ncnc32)O1,-23%,-21%
CCCCN(C(=O)c1cc2ccccc2o1)c1c(N)n(CC(C)C)c(=O)[nH]c1=O,-12%,-13%
O=C(Cn1c(=O)sc2ccccc21)Nc1nc2c(s1)CCCC2,1%,-29%
O=C(NN=C1CCCC1)c1ccccc1[N+](=O)[O-],3%,i
CN(C)C(=O)CCc1ccc2c3c([nH]c2c1)[C@]1(CCc2ccccc2)[C@@H](C(=O)N2CCCCC2)C[C@H](CC(=O)NCc2cccc(C(F)(F)F)c2)C(=O)N1CC3,u,-1%
CCOC(=O)c1nc(Nc2ccc(C(=O)OCC(C)C)cc2)c2ccccc2n1,-24%,-18%

Entries shown so far that contain a tert-butyl group (3):
compound,VACV Venus inh,Vaccinia mCherry
CCc1ccc(N(C(=O)CCC(=O)Nc2cc(C)on2)C(C(=O)NC(C)(C)C)c2ccc(OC)cc2)cc1 (centres undefined),u,-27%
CC(=O)c1ccc(S(=O)(=O)NCCC(=O)OCC(=O)N(Cc2ccccc2)C(C)(C)C)cc1,-10%,-8%
CC(C)(C)C(=O)O/N=C1\CCS(=O)(=O)c2sccc21,-3%,-3%

The results go on:
compound,VACV Venus inh,Vaccinia mCherry
CCN(CC)S(=O)(=O)c1ccc(N2CCOCC2)c(NS(=O)(=O)c2ccc(C)c(C)c2)c1,-21%,-12%
O=C(NCCCN1CCCC1=O)c1ccc([N+](=O)[O-])s1,-28%,-16%
COc1ccc(-c2ccc(CN3C(C(C)C)C(=O)N(Cc4cn(Cc5ccco5)nn4)CCS3(=O)=O)cc2)cn1 (centres undefined),-24%,-9%
CCOC(=O)c1cnc2cc(F)c(F)cc2c1Nc1ccccc1O,0%,3%
O=C(CN1CCCC1)Nc1ccc(F)cc1,-3%,i
Cc1cccc(NC(=S)N(CCN(C)C)C(C)c2ccco2)c1 (centres undefined),-15%,i
CCCC(C)C(=O)Nc1ccc(S(=O)(=O)Nc2nccs2)cc1 (centres undefined),-5%,i
Cc1cc(N2CCOCC2)ccc1/C=C1/SC(=O)NC1=O,-18%,-16%
O=C(O)c1cn(Cc2ccccn2)c(=O)c2ccccc12,-2%,i
CCOc1ccc([C@@H]2CC=C(C(=O)O)[C@H](c3cccc(Cl)c3)N2S(=O)(=O)c2ccc(C)cc2)cc1,-2%,8%
CCOC(=O)C1C(C(=O)OCC)C(C)(C)C1N(C)C (centres undefined),-3%,i
CCOc1ccc(NC(=O)NCCn2nnc3cc(S(=O)(=O)N(C)C)ccc32)cc1,-2%,-1%
O=C(NCC1CCCCC1)c1cccc(Br)c1,-20%,-18%
O=C1[C@H]2[C@@H](C3CC3)N3C(=O)CN(Cc4ccccn4)C(=O)[C@@]3(Cc3ccccc3)[C@H]2C(=O)N1c1ccccc1,-14%,-2%
Cc1ccc(-c2cc(C(=O)NC3=NCCS3)c3ccccc3n2)cc1C,-19%,-16%
Cc1nn(-c2cccc(C(=O)O)c2)c(C)c1Oc1ccccc1O,-23%,-2%
Cc1ccc(NC(=O)CC(C)N2CCCC2)cc1 (centres undefined),4%,-7%
Cc1ccc2cccc(NC3OC(=O)c4ccccc43)c2n1 (centres undefined),-8%,-23%
Cc1c2cnn(-c3ccccc3)c(=O)c2c(C)n1CC(=O)NCCc1ccc(Cl)cc1,-5%,-9%
S=c1[nH]nc(-c2ccco2)n1/N=C/c1ccccc1Cl,-17%,-22%
COc1cccc(C(=O)Nc2cc(C)on2)c1OC,16%,-20%
Cc1ccc(NC(=S)NNC(=O)c2c(Cl)c(C)nn2C)cc1,-11%,i
Cc1ccc(-n2nnc3c(=O)n(CC(=O)NCc4ccccc4)cnc32)cc1,-21%,-8%
O=C(O)/C=C/C(=O)NC1CCCCCCCCCCC1,-10%,-29%
Cc1ccsc1/C=N/NC(=O)Cn1cnc2ccccc21,-12%,-16%
CCOC(=O)CCCCCC(=O)Nc1ccc2c(c1)C(=O)N([C@@H](C)CO)C[C@H](C)[C@H](CN(C)C(=O)NC(C)C)OCCCC[C@H](C)O2,-1%,-20%

Screening results as filed in PubChem.
